# Assay outcomes deposited in PubChem BioAssay by Fisher Drug Discovery Resource Center.
# NPYLR7 ag: activates Aedes aegypti NPYLR7 receptor. HEK293T NPYLR7/Galpha15, GCaMP6s calcium fluorescence. AID 1259423. activation, % at 10 µM. 0.15% of 270,000 active; in the data active means activation above about 40%;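 further: 0% = vehicle and 100% = reference agonist at the receptor; some compounds past the cut are filed as inactive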
# NPYLR7 ag max-min: further read-out of NPYLR7 ag, marked with its call; activation, %; measured here: Max-Min RFU normalised activation; some inactives read as strong as hits;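 span of the calcium signal over five minutes; 0% = vehicle and 100% = native peptide agonist; compound fluorescence can raise it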
# * hit, by the source's call. This is a subset (hit frequency here may not be typical).
molecule	NPYLR7 ag	NPYLR7 ag max-min
CC1(C)CC2(C)OC(=NBr)C1(C#N)C2(C#N)C#N (stereo not drawn)	-2	-5
CC1CCC(C(C)C)C(OC(=O)C[n+]2ccccc2)C1 (stereo not drawn)	-6	-11
COc1ccc(OC)c(C2CC(c3ccc(Br)cc3)=Nc3ncnn32)c1 (stereo not drawn)	8	5
Cc1ccccc1CN1C(=O)C2(SC(C)(C)CN2C(=O)C2CC2)c2cc(Cl)ccc21 (stereo not drawn)	5	10
CCC(=O)OCC(=O)C1(OC(=O)CC)[C@H](C)C[C@H]2[C@H]3[C@H]([C@@H](O)C[C@@]21C)[C@@]1(C)C=CC(=O)C=C1C[C@H]3Cl (stereo partly drawn)	-6	-8
Cc1ccccc1C(=O)N1CCN(C(C(=O)Nc2ccccc2)C2CCCC2)CC1 (stereo not drawn)	-21	-20
COc1ccccc1N1CCN(C2CCCN(C(=O)CCc3ccccc3)C2)CC1 (stereo not drawn)	32	36
Cn1cc(Br)cc(Br)c1=O	-1	-3
CC(C)(C)c1cc(CN2CCc3[nH]cnc3C2c2ccsc2)[nH]n1 (stereo not drawn)	2	14
Cc1cc(C=NNC(=S)NCC2CCCO2)c(C)n1CC(C)C (stereo not drawn)	-1	1
CCc1ccc(CNC(=O)Nc2ccc(C#N)cc2)s1	3	3
Oc1cccc2c1CC/C2=N/Nc1ccccc1C(F)(F)F	5	5
NC(=O)CCSc1nnc(-c2ccccc2F)n1Cc1ccccc1	-3	6
Cc1cc(C)c2c(N)nsc2n1	8	13
OC[C@H]1CCN(Cc2cnc(C3CCCCC3)nc2)C[C@H]1O	4	-1
CCN(CC)CCCNC(=O)c1cc(N2CCN(c3cccc(C(F)(F)F)c3)CC2)nc2ccccc12	3	-2
CCCOC(=O)c1cc(Br)ccc1NC(=O)c1ccc(C)nc1	1	0
CC(C)N1CCC(N(C)CC2CCN(CCc3cccc(F)c3)CC2)CC1	1	-3
COc1ccc(-c2cc(C(=O)Nc3sc(C)c(C)c3C#N)c3ccccc3n2)cc1OC	-8	-9
Cc1cc2c(c(=O)o1)C(c1ccccc1[N+](=O)[O-])C(C#N)C(=N)O2 (stereo not drawn)	10	11
CCCCc1ccc(S(=O)(=O)N2CCN(c3nc4nccc(-c5ccc(Cl)c(Cl)c5)n4n3)CC2)cc1	3	-1
Cc1csc(CNC(=O)C2CCN(c3nc(-c4ccccc4)nc4c3CCC4)CC2)n1	0	-3
CN(CCC1CCOCC1)C(=O)C1CCC(=O)N(Cc2ccccn2)C1 (stereo not drawn)	2	5
CC1CCN(Cc2csc(NC(=O)c3ccc(Cl)c(S(=O)(=O)N4CCCCC4)c3)n2)CC1	25	16
CC(C)[C@H](CO)Nc1nc(Nc2ccc(C(=O)O)c(Cl)c2)c2ncn(C(C)C)c2n1	-13	-21
O=S(=O)(c1ccccc1F)N(Cc1ccco1)Cc1cccc2ccccc12	-7	-12
CC=CCn1c(SCC(=O)OC)nc2c1c(=O)[nH]c(=O)n2C	6	0
CC(C)C(NC(=O)NCc1nnnn1C1CC1)c1ccccc1Cl (stereo not drawn)	3	-1
Cc1ccncc1-c1cccc2[nH]ccc12	6	3
COCc1nc(-c2cccc(CN3CCN(C(=O)c4ccc(F)c(F)c4)CC3)c2)no1	-3	-7
Cc1cc(C)c(NC(=S)NC2CCN(C3CC3)C2)c(Cl)c1 (stereo not drawn)	2	7
COc1cccc(CNC(=O)CSc2nc(=O)n(N3CCN(C)CC3)c3c2CCCC3)c1	-1	-6
Cc1cc(C)n(CCC(=O)N(C)C(C)c2ccon2)c(=O)n1 (stereo not drawn)	-4	-6
COc1ccccc1N1CCN(CCCCN2C(=O)c3ccccc3C2=O)CC1	7	1
COc1cc(/C=C2\NC(=S)NC2=O)cc([N+](=O)[O-])c1O	8	11
c1cc2c(s1)CCNC2	-2	-2
Cc1nc(NC(=O)CCCCCNC(=O)OC(C)(C)C)n[nH]1	-7	-11
CCCCC(=O)Nc1sc2c(c1C(N)=O)CCC2	1	2
O=C(c1cccnc1)N1N=C2CCCCC2C1(O)C(F)(F)F (stereo not drawn)	-4	-2
CCOc1nc(-c2ccc3c(c2)OCO3)n(-c2ccc(NC(=O)c3cc(C(F)(F)F)cc(C(F)(F)F)c3)cc2)n1	-12	-15
Cc1ccc(C(=O)N2CCC(=O)N(C)c3ccccc3C(OCC(N)=O)C2)cc1 (stereo not drawn)	4	7
Cc1ccc(NCc2c(C)nc3sc(C)cn23)cc1	1	-2
COc1cccc(CNC(=O)CCC2CCCN(C(=O)c3cccc4c(C)c(C)[nH]c34)C2)c1 (stereo not drawn)	6	13
S=c1oc(-c2ccco2)nn1CN1CCCCC1	-9	-14
Cc1ccnc2nc(C(=O)NC(C#N)CC(C)C)nn12 (stereo not drawn)	13	4
N#CC(=Cc1ccc(Br)cc1)S(=O)(=O)c1ccc(Cl)cc1	-1	-6
CCc1ccc(C(=O)N2CCN(C(=O)c3cc(-c4ccccc4)n(-c4cccc(OC)c4)c3C)CC2)cc1	0	7
COCCCn1c(C)c(C)n2c3c(=O)n(Cc4cc(C)ccc4C)c(=O)n(C)c3nc12	3	6
Cc1ccccc1C1c2ccsc2CCN1CCC(=O)N1CCN(C(=O)c2ccco2)CC1 (stereo not drawn)	8	-3
Cc1cccc2sc(C(=O)NCCOC(C)C)c(Cl)c12	-20	-11
Cc1ccc(/C=C/c2nc(SC3CCCCC3=O)n[nH]2)o1 (stereo not drawn)	-1	-2
CN(CCc1c[nH]c2ccccc12)C(=O)c1cccnc1N1CCCC1c1cccnc1 (stereo not drawn)	1	6
CN1CC[C@H](N(Cc2ccccc2)C(=O)C2CCC2)C[C@H](O)C1	7	14
COc1ccc(OC)c(-c2nc(C(N)=O)c3[nH]c(=O)n(-c4cccc(Cl)c4)c3n2)c1	3	10
CCN(CC)C(=O)Oc1ccc2c(ccn2Cc2cccc(F)c2)c1NC(=O)c1ccc(OC)c(OC)c1	3	-1
C=CCN(Cc1cccc(OC)c1)C(=O)CC1C=CCC1 (stereo not drawn)	6	2
Cc1cnc(CNC(=O)c2cccc(OC3CCN(S(C)(=O)=O)CC3)c2)cn1	-2	-3
CC(=O)Nc1ccc(S(=O)(=O)Nc2ccc(-c3ccc(N4CCCC4)nn3)cc2)cc1	3	2
O=C(O)c1cccn(Cc2cccc(F)c2)c1=O	1	0
CCOC(C)c1noc(CN2CCN(c3ccncc3)CC2)n1 (stereo not drawn)	-2	-1

# Grouped by structure, the entries above with bromine (five)
molecule	NPYLR7 ag	NPYLR7 ag max-min
CC1(C)CC2(C)OC(=NBr)C1(C#N)C2(C#N)C#N (stereo not drawn)	-2	-5
COc1ccc(OC)c(C2CC(c3ccc(Br)cc3)=Nc3ncnn32)c1 (stereo not drawn)	8	5
Cn1cc(Br)cc(Br)c1=O	-1	-3
CCCOC(=O)c1cc(Br)ccc1NC(=O)c1ccc(C)nc1	1	0
N#CC(=Cc1ccc(Br)cc1)S(=O)(=O)c1ccc(Cl)cc1	-1	-6

# (continued)
molecule	NPYLR7 ag	NPYLR7 ag max-min
CCC(c1nc2ccccc2c(=O)n1-c1ccccc1OC)N(Cc1ccccc1)C(=O)Nc1ccc(Cl)c(Cl)c1 (stereo not drawn)	26	21
COc1cc2c(cc1OC)CN(CC(O)COc1ccc(Cl)cc1)CC2 (stereo not drawn)	0	0
COc1ccc(C(CC(=O)NCc2cn3ccsc3n2)c2ccccc2)cc1 (stereo not drawn)	-1	-5
CC1(C)CC(CCNc2ncnc3c2CCNC3)(c2ccccc2)CCO1 (stereo not drawn)	0	16
COCCCNC(=O)c1c(N)n(/N=C\c2ccccc2OC)c2nc3ccccc3nc12	3	-2
COc1ccc(F)c(F)c1-c1nccn1Cc1ccccc1-n1cncn1	28	12
CCn1c(-c2ccccc2)nn(CN(C)Cc2nc3ccccc3s2)c1=S	2	7
CCc1nc2ccc(C(=O)NCc3cccs3)cn2c1N(CC)CCN(C)C	-5	-8
Cc1ccnc(SCCn2c(N3CCCCCC3)nc3c2c(=O)n(C)c(=O)n3C)n1	0	24
C(=NC(N=Cc1ccco1)c1ccco1)c1ccco1 (stereo not drawn)	1	1
CC(C)(C)CN(CCCO)c1nc2ccccc2s1	-2	-4
CC(=O)Oc1c(-c2ccc(NC(=O)c3ccco3)cc2)c(-c2cccc(F)c2)nn1-c1ccc(C)cc1	-1	-2
CC(=O)N1CCN(C(=O)c2c(C)c(C)c(C)n2Cc2ccc(F)c(F)c2)CC1	-10	-7
Nc1c(Br)cc(Br)c2nsnc12	1	0
CC1(Cc2ccc(C(F)(F)F)o2)C(=O)Nc2ccc(OC(F)(F)F)cc21 (stereo not drawn)	1	3
CCOC(=O)CN(CC(=O)N(CCc1ccccc1)Cc1ccc(C)o1)CC1CCCO1 (stereo not drawn)	0	4
O=C(O)CCN1C(=O)SC(=Cc2cccs2)C1=O	3	-4
O=C(c1ccc(O)cn1)N1CCCC(Nc2cccc(F)c2)C1 (stereo not drawn)	4	4
FC(F)(F)c1ccnc(Nc2ccn(-c3ccccc3)n2)n1	13	9
Cc1nc(N2CCCC(C(=O)NCc3cc(F)ccc3F)C2)nc2cc(S(C)(=O)=O)ccc12 (stereo not drawn)	16	2
O=C1OC(/C=C/c2ccc(Cl)cc2)=NC/1=C/C=C/c1ccccc1	-21	-25
Cc1ccc(CC(=O)NC2CCN(C(C)C)CC2)cc1	2	0
COc1cc(-c2nnc(SCc3cn4cc(Cl)ccc4n3)o2)cc(OC)c1OC	5	2
O=[N+]([O-])c1c(Nc2ccc(F)cc2)[nH]c2ccc(F)cc12	14	13
O=C(CN1C(=O)c2ccccc2C1=O)NCC1CCCO1 (stereo not drawn)	-20	-20
CCC(C)CCCCNC1=NCCS1 (stereo not drawn)	4	4
O=C(Nc1nncs1)NN(c1ccccc1)c1ccccc1	7	4
COC(=O)c1ccc(CSc2ncc(CO)n2CC(=O)NC2CCCC2)cc1	8	3
CN(CC1CCCN(CCc2cccc(C(F)(F)F)c2)C1)C(=O)c1ccc(Cl)s1 (stereo not drawn)	26	11
CCC(C)N(Cc1ccc(OC)c(OS(=O)(=O)CC)c1)C(=O)Nc1ccc(OC)cc1OC (stereo not drawn)	-13	-10

# Ordered by count of non-hydrogen atoms (highest first): 6 of the compounds above.
molecule	NPYLR7 ag	NPYLR7 ag max-min
CCC(C)N(Cc1ccc(OC)c(OS(=O)(=O)CC)c1)C(=O)Nc1ccc(OC)cc1OC (stereo not drawn)	-13	-10
CCOC(=O)CN(CC(=O)N(CCc1ccccc1)Cc1ccc(C)o1)CC1CCCO1 (stereo not drawn)	0	4
Cc1ccnc(SCCn2c(N3CCCCCC3)nc3c2c(=O)n(C)c(=O)n3C)n1	0	24
COc1ccc(C(CC(=O)NCc2cn3ccsc3n2)c2ccccc2)cc1 (stereo not drawn)	-1	-5
O=C(c1ccc(O)cn1)N1CCCC(Nc2cccc(F)c2)C1 (stereo not drawn)	4	4
C(=NC(N=Cc1ccco1)c1ccco1)c1ccco1 (stereo not drawn)	1	1

# Further structures:
molecule	NPYLR7 ag	NPYLR7 ag max-min
Cc1noc(-c2cccs2)c1C(=O)NCc1ccccn1	21	23
CN(C)C(=O)c1ccc(Nc2ncc(C(F)(F)F)cc2Cl)cc1	-25	-26
CC(Cc1ccccn1)N1CCN(c2nc(-c3ccccc3)nc3c2CCC3)CC1 (stereo not drawn)	2	-2
COc1ccc(C(CCN(C)C(=O)C2CC(=O)OC2(C)C)Oc2cccc3ccccc23)cc1 (stereo not drawn)	0	-2
COCN1C(=O)c2cc(Cl)c(Cl)cc2C1=O	-4	-8
COc1ccc(-c2nnc(SCC(=O)N/N=C\c3ccco3)n2-c2ccccc2)cc1OC	-10	-11
Cc1ccccc1NC(=O)c1c(NC(=O)C(C)(C)C)sc2c1CCC(C)C2 (stereo not drawn)	-6	-4
COc1ccccc1-n1c(Cc2ccccc2)nnc1SCc1ccc(C(=O)N2CCOCC2)cc1	15	15
CC(C)(C)CN1CC(NC(=O)CCc2n[nH]c3c2CCCC3)CC1=O (stereo not drawn)	-7	-8
COc1ccccc1C(=O)N/N=c1\oc2c(OC)cccc2cc1-c1nc2ccccc2[nH]1	-5	-8
COc1ccc(Cl)cc1C(=O)Nc1nnc(SCC(=O)N2CCCc3ccccc32)s1	-11	-21
CCc1ccccc1NC(=O)CN(C)C(=O)c1ccc2c(c1)nnn2CC	12	10
CSc1c(F)cnc(=O)n1CC(=O)N1c2ccccc2SC2C=CC=CC21 (stereo not drawn)	-1	0
Cc1ccc(CN(C)C(=O)c2cc3c(F)cccc3s2)o1	2	6
Cc1cc(C)c(S(=O)(=O)N2CCC(C(=O)NC3CCCC[C@H]3NC(=O)c3ccccc3)CC2)c(C)c1 (stereo partly drawn)	27	24
c1ccc(-c2ncn(CCCc3cccnc3)c2-c2cnn3cccnc23)cc1	-1	-2
CN(C)C(Cn1c(=O)[nH]c2ccccc2c1=O)c1cccc(F)c1 (stereo not drawn)	0	-1

# Record cards, from the list above. Values in the order: NPYLR7 ag	NPYLR7 ag max-min
# CCc1ccccc1NC(=O)CN(C)C(=O)c1ccc2c(c1)nnn2CC in the list: 12	10
# COCN1C(=O)c2cc(Cl)c(Cl)cc2C1=O in the list: -4	-8
# COc1ccc(C(CCN(C)C(=O)C2CC(=O)OC2(C)C)Oc2cccc3ccccc23)cc1 (stereo not drawn) in the list: 0	-2
# COc1ccccc1C(=O)N/N=c1\oc2c(OC)cccc2cc1-c1nc2ccccc2[nH]1 in the list: -5	-8
# COc1ccc(-c2nnc(SCC(=O)N/N=C\c3ccco3)n2-c2ccccc2)cc1OC in the list: -10	-11
